Bst PK mod – modulators of Bacillus stearothermophilus pyruvate kinase; AID 361; partly purified Bacillus stearothermophilus pyruvate kinase, luminescence ATP production; ribose 5-phosphate activator present at AC10; Potency, µM; hit rate 1.2% among 51,000; in the data active means potency below about 11 µM; inconclusive means mostly about 12 µM to 25 µM; inactive means weaker than that;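 the screen sought inhibitors and activators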;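 also: potency is read from the fitted curve at half-maximal effect; scaled between full activation by ribose 5 phosphate and full inhibition by luteolin; about four in five hits inhibit and the cells do not say which; series up to 57 µM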
YjeE inh – displaces an ADP probe from E. coli YjeE (TsaE) | P0AF67 | purified YjeE, fluorescence polarisation of a bound ADP probe | Potency, µM | hit rate 0.05% among 71,000; active = well fitted falling curve; inconclusive = weaker or top-dose-only fall, or a rising curve; inactive = flat or poorly fitted curve;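 also: top concentration of the series not given in the record; excess ADP was the control for the full effect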
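Purified YjeE (10 uM) with BODIPY Texas Red-labeled ADP probe (2 uM); compounds pin-transferred, 15 min at room temperature. Binding inhibition read as decreased fluorescence polarization; ADP titration as control.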
* marks the source's active call; other numbers are inactive results; i = inactive; ? = inconclusive; · = no result given. The list is partial (hit frequency here may not be typical).

molecule | Bst PK mod | YjeE inh
O=C(CCn1c(=O)[nH]c2ccsc2c1=O)N1CCN(Cc2ccc3c(c2)OCO3)CC1 | >57 | i
COc1ccc(C(C(=O)NC(C)(C)C)N(Cc2ccco2)C(=O)CCC(=O)Nc2cc(C)on2)cc1 (stereo not drawn) | >57 | i
O=C(Nc1ccc2[nH]c3c(c2c1)CCCC3)c1ccco1 | · | i
Cn1nc(C(=O)NC2CCCCC2)c2ccccc2c1=O | >57 | i
Cc1sc2ncnc(SCC(=O)N3CCCC3)c2c1C | · | i
CCc1ccc2[nH]c(=O)c(CN(CCCN3CCOCC3)C(=O)Nc3cccc(Cl)c3)cc2c1 | i | i
O=C(Nc1ccc2nc(-c3ccccc3)oc2c1)c1ccco1 | ? | i
Cc1ccc2cc(CN(C)C(=O)C3CCCO3)c(=O)[nH]c2c1 (stereo not drawn) | >57 | i
O=C(c1ccc(CNS(=O)(=O)c2ccccc2)cc1)N1CCN(c2ccccn2)CC1 | >57 | i
Cc1ccc(S(=O)(=O)N2CCN(C3CCN(Cc4ccccc4)CC3)CC2)cc1 | >57 | i
Cc1ccc(Cl)cc1N1CCN(C(=O)c2ccc(NS(=O)(=O)c3c(C)noc3C)cc2)CC1 | >57 | i
COC(=O)c1cc(OC)c(OC)cc1NC(=O)CSc1nnnn1Cc1ccccc1 | >57 | i
CN1C(=O)C[C@H](c2ccccc2)C1=O | · | i
Cc1cc(=O)n2nc(N3CCCC(C(=O)NCCCN4CCc5ccccc5C4)C3)sc2n1 (stereo not drawn) | >57 | i
CCc1cc(=O)oc2cc(C)cc(OCc3nn[nH]n3)c12 | >11.4 | i
CCCCOC(=O)c1ccc(NC(=O)c2ccoc2C)cc1 | >57 | i
O=C(Nc1ccc(Oc2ncccn2)cc1)c1ccco1 | >57 | i
COc1ccccc1NC(=O)N1c2ccc(F)cc2CCC1C (stereo not drawn) | · | i
O=C1C(Cl)=C(N2CCCCC2)C(=O)N1c1ccccc1Cl | · | i
O=C(Nc1ccccc1C(=O)N1CCOCC1)C1CCCO1 (stereo not drawn) | >57 | i

Next part, overlapping the part above by seven compounds.
molecule | Bst PK mod | YjeE inh
Cc1cc(=O)n2nc(N3CCCC(C(=O)NCCCN4CCc5ccccc5C4)C3)sc2n1 (stereo not drawn) | >57 | i
CCc1cc(=O)oc2cc(C)cc(OCc3nn[nH]n3)c12 | >11.4 | i
CCCCOC(=O)c1ccc(NC(=O)c2ccoc2C)cc1 | >57 | i
O=C(Nc1ccc(Oc2ncccn2)cc1)c1ccco1 | >57 | i
COc1ccccc1NC(=O)N1c2ccc(F)cc2CCC1C (stereo not drawn) | · | i
O=C1C(Cl)=C(N2CCCCC2)C(=O)N1c1ccccc1Cl | · | i
O=C(Nc1ccccc1C(=O)N1CCOCC1)C1CCCO1 (stereo not drawn) | >57 | i
COc1ccc(-c2nn(CC(=O)N(C)C)c(=O)c3ccccc23)cc1 | · | i
CCOC(=O)c1ccc(OCc2nc(-c3cccs3)no2)cc1 | >57 | i
CCCc1cc(C(=O)N2CCN(S(=O)(=O)c3ccc(OC)c(OC)c3)CC2)cs1 | >57 | i
Cn1c(=O)[nH]c(=O)c2c1nc(N1CCCCC1)n2CCOc1ccccc1 | >57 | i
CN1CCN(c2ncnc3ccc(-c4ccc5c(c4)OCO5)cc23)CC1 | · | i
c1cncc(-c2cc(-c3cc(-c4cccnc4)n[nH]3)[nH]n2)c1 | · | i
CCOc1ccc(NC(=O)CSc2nc3ccccc3c(=O)n2CCNC(C)=O)cc1 | >57 | i
O=C(c1ccco1)N1CCN(C(=O)C2CCN(S(=O)(=O)c3cccc4nsnc34)CC2)CC1 | >57 | i
O=C(Nc1cnc2ccccc2c1)c1ccncc1 | · | i
COC(=O)c1sccc1NC(=O)c1c(C)cc(=O)oc1C | >25.6 | ·
COc1ccc(CCNC(=O)CSc2nnc(-c3ccccc3)o2)cc1OC | >57 | i
CC1CCN(C(c2cc3cc4c(cc3[nH]c2=O)OCO4)c2nnnn2CC2CCCO2)CC1 (stereo not drawn) | >57 | i
CC1CCN(c2ccc(NC(=O)c3cccnc3)cc2)CC1 | · | i
COc1ccccc1OCCNC(=O)c1cccs1 | · | i
CCOC(=O)N1CCN(S(=O)(=O)c2ccc(C(=O)Nc3nc4c(s3)CC(C)CC4)cc2)CC1 (stereo not drawn) | >57 | i
CCCCCCn1c(SCC(=O)Nc2cc(C)on2)nc2ccccc2c1=O | >57 | i
O=C(c1nc(-c2ccccc2)n(-c2ccccc2)n1)N1CCN(S(=O)(=O)c2ccccc2)CC1 | >57 | i
COC(=O)c1oc2ccc(Cl)cc2c1NC(C)=O | >57 | i
COc1ccc(-c2nnc(SCC(=O)c3cccs3)o2)c(OC)c1 | >57 | i
CCOc1ccccc1NC(=O)Cn1nnc(C(=O)Nc2ccccc2Cl)c1N | >57 | i
COc1ccc(-c2nc(C#N)c(NC(C)C)o2)cc1 | · | i
Cc1ccc(C(=O)COC(=O)CCc2nc3ccccc3[nH]c2=O)cc1C | >57 | i
Cc1cc2nc(C(F)(F)F)[nH]c(=O)n2n1 | >57 | i
O=C(O)c1cccc(Cn2cc(Cl)cn2)c1 | >57 | i
Cc1[nH]c2ccccc2c1C(c1ccccn1)N1CCC(C(N)=O)CC1 (stereo not drawn) | >57 | i
Cc1ccc2occ(C(c3nnnn3Cc3ccccc3)N3CCOCC3)c(=O)c2c1 (stereo not drawn) | >57 | i
CCCCOc1nc2ccccc2nc1C(C#N)S(=O)(=O)c1ccccc1 (stereo not drawn) | >57 | i
N#Cc1c2c(c(NCc3ccco3)n3c1nc1ccccc13)CCC2 | · | i
CSCCC(NC(=O)C1CC1)c1nc2ccccc2[nH]1 (stereo not drawn) | >57 | i
CCN1CCC[C@H]1CNC(=O)c1cc(S(N)(=O)=O)ccc1OC | · | i
N[C@@H]1[C@@H]2[C@@H]3C[C@H]4N(CC[C@@]14C(=O)C(=O)O)CC3=CCO[C@@H]2CC(=O)O | · | i
COC(=O)CSc1nnc(-c2cccc(NC(=O)c3ccc(C)cc3)c2)n1C | · | i
CC(=O)CC1(C)OC(N)=C(C#N)C1(C#N)C#N (stereo not drawn) | >57 | i
Cc1nn(Cc2ccccc2Cl)c2sc(C(=O)OC3CCCC3=O)cc12 (stereo not drawn) | >57 | i
COC(=O)CN1C(=O)C(O)(CC(=O)c2ccc(C)cc2)c2ccccc21 (stereo not drawn) | >57 | i
CCOC(=O)C1CCc2sc(N)c(C#N)c21 (stereo not drawn) | >57 | i
Cc1c(C(=O)NC2CCCc3ccccc32)oc2ccc(S(=O)(=O)N3CCOCC3)cc12 (stereo not drawn) | >57 | i
O=C(CCCCCN1C(=O)c2ccccc2C1=O)Nc1nccs1 | >57 | i
COc1ccccc1N1CCN(C(CNS(=O)(=O)c2ccccc2)c2cccnc2)CC1 (stereo not drawn) | >57 | i
O=C(Cn1nc(Cc2cccnc2)c2ccccc2c1=O)NCC1COc2ccccc2O1 (stereo not drawn) | · | i
CC1(O)c2ccccc2C(=O)N1CCc1ccccc1F (stereo not drawn) | >57 | i
CC(C)(C)OC(=O)NCCc1nnc(SCC(=O)Nc2cccc(Cl)c2)o1 | >57 | i
CN(C)S(=O)(=O)c1ccc(N2CCCC2)c(C(=O)Nc2ccccc2N2CCOCC2)c1 | >57 | i
CCN(CCCNC(=O)CCCN1C(=O)COc2ccc(C)cc21)c1cccc(C)c1 | >57 | i
Cn1c(C(=O)N2CCCC(C(=O)NCc3cccs3)C2)cc2sccc21 (stereo not drawn) | >57 | i
O=C(NCc1ccco1)C1CCCN1C(=O)NCc1ccccc1 (stereo not drawn) | >57 | i
COc1ccccc1C1CC(c2ccccc2)Nc2ncnn21 (stereo not drawn) | >57 | i
CCn1cc(C(=O)O)c(=O)c2cc3c(cc21)OCO3 | · | i
CCn1c(SCC(=O)Nc2ccc(N(C)C)cc2)nnc1-c1cccc(C)c1 | >57 | i
Cc1cccc(C)c1OCc1nnc(SCC(=O)Nc2nccs2)o1 | · | i
C=CCOc1cccc(C2C(C(=O)c3ccc(C)o3)=C(O)C(=O)N2Cc2ccncc2)c1 (stereo not drawn) | >57 | i
CCn1cc(C(=O)O)c(=O)c2cnc(N3CCCC3)nc21 | · | i
Cc1ccccc1-n1nnc2c(=O)oc3ccccc3c21 | >57 | i
COc1ccccc1CN1CCCC2(CCNCC2)C1 | · | i
O=C(c1cc(-c2ccco2)nn1-c1cccc(Cl)c1)N1CCCCC1 | >57 | i
CNC(=O)c1ccc(Oc2ccc(C(=O)NC)cc2)cc1 | >57 | i
Cc1ccc(S(=O)(=O)N(CC(=O)NCc2ccco2)Cc2ccc(F)cc2)cc1 | · | i
c1ccc(-c2n[nH]c(-c3ccccn3)n2)nc1 | · | i
O=C(c1n[nH]c(=O)c2ccccc12)N1CCOCC1 | >57 | i
Cc1c2cc[n+](CCN3CCCCC3)cc2c(C)c2c1[nH]c1ccc(O)cc12 | · | i

The list continues.
molecule | Bst PK mod | YjeE inh
Cc1ccc(-n2c(Cc3cccn3C)nnc2SCC(=O)Nc2cc(C)on2)cc1 | >57 | i
CS(=O)(=O)c1ccc(C(=O)NC2CCOC2=O)cc1 (stereo not drawn) | >57 | i
C/C(N)=C(/C#N)C(=O)CSc1nnc(Nc2cccc(C)c2)s1 | >57 | i
COc1ccc(C(C)=O)cc1COC(=O)c1c(C)noc1C | >57 | i
COc1ccccc1N(CC(=O)Nc1cc(C)on1)S(=O)(=O)c1cccs1 | >57 | i
c1ccc2c(-c3ccncc3)c[nH]c2c1 | i | i
COc1cccc(-n2c(SCc3c(C)noc3C)nnc2-c2cccc(S(=O)(=O)N(C)C)c2)c1 | >57 | i
O=C(NCCN1C(=O)C2C3C=CC(C3)C2C1=O)Nc1cccnc1 (stereo not drawn) | · | i
C#CCOc1ccc(Cl)cc1/C=N/O | · | i
COc1ccc(-n2c(Cc3cccn3C)nnc2SCC(=O)Nc2cccc(Cl)c2)cc1 | · | i
CCOc1ccc(C(C)C)cc1S(=O)(=O)n1nc(C)cc1C | >57 | i
CCC(C)NC(=O)C1CC(c2ccc(OC)cc2)=NO1 (stereo not drawn) | >57 | i
CCc1ccc(-n2c(O)cnc2Nc2nc(C)cc(C)n2)cc1 | · | i
CCOC(=O)N1CCN(C(=O)Cc2ccsc2)CC1 | >57 | i
O=C(COc1ccc(S(=O)(=O)N2CCCC2)cc1Cl)NC1CC1 | >57 | i
COCCCn1c(SCC(=O)N2CC(=O)Nc3ccccc32)nnc1-c1ccoc1C | >57 | i
COc1cc(NC(=O)c2ccccc2)c(OC)cc1NC(=O)CN1CCOCC1 | >57 | i
Cc1cc(=O)n2nc(N3CCC(C(=O)NC4CCCc5ccccc54)CC3)sc2n1 (stereo not drawn) | · | i
Cc1cccc(NC(=O)c2ccccc2O)c1C | · | i
CCN(CC)C(=O)Cn1nc(-c2ccccc2O)nc1SCC(=O)Nc1ccc(OC)cc1 | >57 | i
NC(=O)CSc1nnc(-c2ccc(S(=O)(=O)N3CCCC3)cc2)n1CC1CCCO1 (stereo not drawn) | >57 | i
CCc1c(C)nc(SCC(=O)c2ccc(C)c(C)c2)[nH]c1=O | >57 | i
COc1ccc(-c2nc3c(n2O)CCCC3=O)cc1OC | >57 | i
CCOC(=O)c1c(C)n(C)c2ccc(OC)c(NC(=O)CCN3CCSCC3)c12 | >25.6 | ·
CS(=O)c1nc(-c2ccc(Br)cc2)cc(-c2ccccc2)c1C#N (stereo not drawn) | · | i
CN1C(=O)CSc2ccc(NC(=O)Nc3ccccn3)cc21 | ? | i
COC(=O)C1C2C=CC3(CN(Cc4cccs4)C(=O)C13)O2 (stereo not drawn) | >57 | i
CN(CCc1ccccn1)S(=O)(=O)c1ccc(F)cc1 | >57 | i
Nc1nc2nc(SCC(=O)N3CCCc4ccccc43)[nH]c2c(=O)[nH]1 | >11.4 | i
O=C1CC(Nc2ccccc2)C(=O)N1c1ccc(N2CCOCC2)cc1 (stereo not drawn) | >57 | i
CCCCN(C(=O)NC(=O)Nc1nc2ccc(OC)cc2s1)S(C)(=O)=O | i | i
Cc1ccc(CCNC(=O)C2CCN(S(=O)(=O)c3cccc4nsnc34)CC2)cc1 | >57 | i
Cc1[nH]c(=O)[nH]c(=O)c1S(=O)(=O)N1CCCC1 | >25.6 | ·
COC(=O)[C@H](CCSC)NC(=O)N1CCN(Cc2ccccc2)CC1 | >57 | i
CCOC(=O)CCC(=O)O[C@H]1[C@H](O[C@@H]2[C@@H](C)[C@H](O[C@H]3C[C@@](C)(OC)[C@@H](O)[C@H](C)O3)[C@@H](C)C(=O)O[C@H](CC)[C@@](C)(O)[C@H](O)[C@@H](C)C(=O)[C@H](C)C[C@@]2(C)O)O[C@H](C)C[C@@H]1N(C)C | >25.6 | ·
COc1ccc(-n2cnnc2SCCC#N)cc1 | >57 | i
Cc1cc2cc(CN(Cc3ccco3)C(=O)C3CCCCC3)c(=O)[nH]c2cc1C | >57 | i
O=C(NCCc1ccccc1)NC1CCCCC1 | · | i
Cc1ccc(-n2c(SCC(=O)NCC3CCCO3)nnc2-c2ccoc2C)cc1 (stereo not drawn) | >57 | i
CNC(=O)c1c[nH]n2c(=O)c(Cc3ccccc3F)c(C)nc12 | · | i

High-throughput results (PubChem BioAssay)
